Screening data: PubChem, several laboratories
MLL AF4-AF9 inh – inhibitors of human MLL-AF4/AF9 interaction. AlphaScreen, biotin-AF4 peptide binding to FLAG-AF9. inhibition, % at 10 µM. 350,000 tested, 0.47% active;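 active = every replicate reaching a set inhibition limit, whatever the replicate mean, cut at about 25% in these data; inconclusive = mean inhibition reaches that limit but some replicates miss it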;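 also: 0% = plate neutral control median and 100% = total signal loss; the record names both 10 and 1 µM as test concentration; the first replicate is given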
T cruzi inh – T. cruzi replication inhibition; inhibition, % (test concentration not listed); 300,000 tested, 1.4% active; T. cruzi beta-gal in NIH3T3, luminescence, 90 h;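 active = mean inhibition across valid replicates above about 55%, limit read from the data; inconclusive = mean below that limit but half or more replicates reach it; inactive = mean below it, under half of replicates reach it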;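 also: signal also drops with host cell toxicity which is not excluded here; 0% = plate median of DMSO wells and 100% = zero luminescence signal; higher percent means less beta-gal luminescence so fewer parasites; stock transfer was 50 nL into about 50 µL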
Vif A3G – inhibitors of Vif binding to APOBEC3G peptide, primary screen, biochemical, TR-FRET, GST-Vif 1-94, biotin-A3G peptide, dose response retest (AID 1117319); TR-FRET GST-Vif / biotin-A3G peptide binding; higher % means a stronger effect; test concentration not given here; strong numbers were not always called active; one-dose inhibition, %; IC50 in µM for titrated hits; 260,000 tested, 0.57% active;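 active = above the screen mean plus three standard deviations and confirmed in dose response; inconclusive = results disagree or hit not tested in dose response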;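 also: Vif residues 1-94 fused to GST binding biotinylated APOBEC3G peptide 110-148; 0% = full assay without inhibitor and 100% = GST in place of GST-Vif; retest series ran down from 100 µM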
A1 inh – inhibitors of the anti-apoptotic protein A1, read as caspase activation | MEF A1-2A-BIM cells, Caspase-Glo 3/7 luminescence, 3 h; percent of clofoctol response, vehicle zero | caspase activation, % (test concentration not listed) | 330,000 tested, 0.066% active;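 active = over half of replicate activation scores above 10%, or exactly half above 10 with the replicate mean above 10; inconclusive = replicate mean below 10 yet half the replicates above 10; inactive = over half of replicates below 10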;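 also: wells of about 30 µL received 50 nL stock; many hits fall short of the cut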
Beta apoptosis – blocks beta cell apoptosis. protection from apoptosis, % (test concentration not listed). INS-1E cytokine-induced death, ATP luminescence, 48 h; percent of positive-control rescue, neutral wells zero. 300,000 tested, 0.8% active;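 active = all replicates at 75% or more, or half of them and the mean; inconclusive = half reach 75% but not the mean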;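 also: 0% = cytokine-treated negative control wells and 100% = positive control rescue; higher means more ATP so stronger rescue from cytokine killing; wells of about 40 µL received 100 nL stock; the first replicate is given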
Calb FLC – C. albicans growth modulation with fluconazole; AID 1979; C. albicans CaCi-2 (fluconazole-resistant clinical isolate) + fluconazole, Alamar Blue growth, 48 h; growth inhibition, % (no concentration beside the values); 300,000 tested, 0.57% active;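 active = most replicates above 75%; inconclusive = exactly half above 75%; inactive = most below 75%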;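 also: all wells also contain fluconazole at 8 µg/ml as a sub-toxic cotreatment; 0% = median of DMSO wells and 100% = median of geldanamycin control wells; wells of about 8 µL received 7.5 nL stock; the first replicate is given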
LANA-H2A inh – blocks KSHV LANA binding to histone H2A/H2B; Q9QR71; cell-free LANA-H2A/H2B peptide, fluorescence polarization; inhibition, % (no concentration beside the values); 320,000 tested, 0.6% active; AID 2629; in the data active = inhibition mostly above about 10%, no sharp cut-off; inactive = mostly below about 6.7%;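 also: stock transfer was 7.5 nL into about 10 µL; 0% = median of vehicle wells and 100% = median of positive control wells; one replicate is shown; the record names a cut of 25% in any replicate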
Target sequence (Q9QR71 whole entry, looked up): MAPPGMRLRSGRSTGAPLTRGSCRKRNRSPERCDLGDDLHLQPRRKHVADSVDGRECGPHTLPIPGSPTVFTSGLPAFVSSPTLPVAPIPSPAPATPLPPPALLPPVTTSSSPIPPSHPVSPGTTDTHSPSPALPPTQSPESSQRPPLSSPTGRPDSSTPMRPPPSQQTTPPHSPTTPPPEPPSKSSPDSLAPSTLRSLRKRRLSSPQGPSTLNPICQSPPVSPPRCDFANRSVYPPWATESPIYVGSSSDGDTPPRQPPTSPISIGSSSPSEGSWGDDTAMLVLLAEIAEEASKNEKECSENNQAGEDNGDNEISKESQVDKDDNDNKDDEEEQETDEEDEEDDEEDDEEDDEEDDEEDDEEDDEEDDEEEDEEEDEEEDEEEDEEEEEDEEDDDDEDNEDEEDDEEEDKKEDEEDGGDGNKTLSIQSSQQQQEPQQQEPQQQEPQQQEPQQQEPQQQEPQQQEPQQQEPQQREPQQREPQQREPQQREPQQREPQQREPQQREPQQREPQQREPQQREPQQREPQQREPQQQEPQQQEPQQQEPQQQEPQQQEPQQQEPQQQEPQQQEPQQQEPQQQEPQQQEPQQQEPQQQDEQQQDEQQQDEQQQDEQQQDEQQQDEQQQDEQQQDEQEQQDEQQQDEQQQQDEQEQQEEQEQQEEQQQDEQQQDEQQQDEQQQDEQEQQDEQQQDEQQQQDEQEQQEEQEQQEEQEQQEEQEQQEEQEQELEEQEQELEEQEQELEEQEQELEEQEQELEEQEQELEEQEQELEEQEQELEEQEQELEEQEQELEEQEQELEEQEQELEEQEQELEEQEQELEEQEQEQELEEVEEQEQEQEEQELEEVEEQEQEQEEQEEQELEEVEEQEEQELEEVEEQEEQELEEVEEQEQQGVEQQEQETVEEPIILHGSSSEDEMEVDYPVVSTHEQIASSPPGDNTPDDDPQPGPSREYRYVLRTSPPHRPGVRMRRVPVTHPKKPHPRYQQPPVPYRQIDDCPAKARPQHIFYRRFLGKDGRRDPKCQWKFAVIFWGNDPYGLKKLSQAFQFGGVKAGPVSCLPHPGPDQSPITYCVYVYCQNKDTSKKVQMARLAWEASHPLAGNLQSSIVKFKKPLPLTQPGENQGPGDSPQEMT
RanGTP-Impb inh – disruptors of Ran-importin-beta complex formation – biochemical, FRET, CFP-Ran, YFP-importin-beta, homogeneous, primary screen. cell-free CFP-Ran/YFP-importin-beta FRET ratio. inhibition, % (test concentration not listed). 300,000 tested, 1.1% active. AID 2216;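 active = most replicates above 15%; inconclusive = exactly half above 15%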;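 also: 0% = DMSO wells and 100% = Ran loaded with GDP instead of GTP; wells of about 40 µL received 100 nL stock; the first replicate is given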
An asterisk follows results filed as active.

COc1ccc(-c2csc3nc(-c4ccccc4F)oc(=O)c23)cc1OC was read as T cruzi inh -13, Vif A3G -17%, A1 inh 0.0, Beta apoptosis 12, Calb FLC 3, LANA-H2A inh 2.0 and RanGTP-Impb inh 0.4.
`CCOC(=O)c1nc(C)n(-c2cc(OC)c(Cl)cc2Cl)n1` gave MLL AF4-AF9 inh -1.2, T cruzi inh 2, Vif A3G 0%, A1 inh -0.2, Beta apoptosis -7, Calb FLC -2, LANA-H2A inh 13 and RanGTP-Impb inh inconclusive.
O=C(Nn1cnc2ccccc2c1=O)c1ccc([N+](=O)[O-])cc1Cl was read as MLL AF4-AF9 inh -0.5, T cruzi inh -43, Vif A3G 8%, A1 inh 0.3, Beta apoptosis 1, Calb FLC -16, LANA-H2A inh 1.6 and RanGTP-Impb inh -0.2.
For O=C(NCCCn1ccnc1)c1ccccc1NS(=O)(=O)c1ccc(F)c(F)c1 the results were T cruzi inh -7, Vif A3G 30%, A1 inh -1.1, Beta apoptosis 1, Calb FLC 20, LANA-H2A inh 4.6 and RanGTP-Impb inh 5.3.
Screening Cc1ccc(C)c(NC(=S)NCCc2ccc(F)cc2)c1 returned MLL AF4-AF9 inh 1.6, T cruzi inh 11, A1 inh 1.3, Beta apoptosis 6, Calb FLC -29, LANA-H2A inh 1.8 and RanGTP-Impb inh 3.4.
For O=C(NC1CCCCC1)c1ccc(-n2cnnn2)cc1 the results were MLL AF4-AF9 inh 0.4, T cruzi inh -6, Vif A3G -3%, A1 inh -0.4, Beta apoptosis -8, Calb FLC 2, LANA-H2A inh 2.6 and RanGTP-Impb inh 0.1.
For COCCOc1cc(NC(=O)CS(=O)(=O)CC(=O)N(C)C)c(Cl)cc1Cl the results were MLL AF4-AF9 inh -12, T cruzi inh -16, Vif A3G 4%, A1 inh -2.1, Beta apoptosis 0, Calb FLC 23, LANA-H2A inh 2.3 and RanGTP-Impb inh -0.3.
Cc1ccc(S(=O)(=O)N2CCOc3ccccc32)c(C)c1NS(C)(=O)=O was read as MLL AF4-AF9 inh 1.0, T cruzi inh 17, Vif A3G -2%, A1 inh 1.7, Beta apoptosis -1, Calb FLC 1, LANA-H2A inh -0.8 and RanGTP-Impb inh -0.6.
`Cc1ccc(OCCN2CCN(c3ncnc4sc(C)c(C)c34)CC2)cc1` gave T cruzi inh -27, Vif A3G 1%, A1 inh -0.1, Beta apoptosis 114*, Calb FLC -21, LANA-H2A inh -0.5 and RanGTP-Impb inh -0.4.
Cc1nn(CC(=O)NNC(=O)c2ccccc2F)c([N+](=O)[O-])c1Br was read as MLL AF4-AF9 inh 1.7, T cruzi inh 7, Vif A3G 3%, A1 inh 0.4, Beta apoptosis -9, Calb FLC 8, LANA-H2A inh 5.2 and RanGTP-Impb inh 4.3.
For COc1ccc(NC(=O)CN2C(=O)NC(C)(c3ccc4c(c3)OCO4)C2=O)cc1S(N)(=O)=O (stereo not given) the results were MLL AF4-AF9 inh -1.9, Vif A3G -8%, A1 inh -0.6, Beta apoptosis -2 and LANA-H2A inh 4.5.
`C=CCNC(=O)C1CC2Cn3c(nc4cc5ccccc5cc43)C2N1C` (stereo not given) gave MLL AF4-AF9 inh 2.0, T cruzi inh -19, Vif A3G 4%, A1 inh 0.8, Beta apoptosis -8, Calb FLC -8, LANA-H2A inh -6.5 and RanGTP-Impb inh 3.1.
For CCCCCC(=O)Nc1cccc(C2=NOC3(C2)C[C@H](C(N)=O)N(C(=O)COc2ccc(Cl)cc2)C3)c1 (stereo not given in full) the results were MLL AF4-AF9 inh -14, T cruzi inh 41, Vif A3G 1%, A1 inh 0.0, Beta apoptosis -3, Calb FLC 16, LANA-H2A inh 3.2 and RanGTP-Impb inh 0.3.
Screening O=C(COC(=O)CN1C(=O)C(=O)c2ccccc21)OCN1C(=O)c2ccccc2C1=O returned T cruzi inh 5, Vif A3G -3%, A1 inh 2.5, Beta apoptosis -5, Calb FLC 4, LANA-H2A inh -3.2 and RanGTP-Impb inh 1.1.
Cc1ccc(C2=NOC3(CC(=O)N(c4ccccc4)C3=O)C2)cc1 (stereo not given) was read as MLL AF4-AF9 inh -13, Vif A3G 2%, A1 inh 1.1, Beta apoptosis -7, Calb FLC -5, LANA-H2A inh -15 and RanGTP-Impb inh -3.4.
For CCCn1c(=O)[nH]c(=O)c2c1nc(-c1cc([N+](=O)[O-])ccc1Cl)n2CCOC the results were MLL AF4-AF9 inh -0.2, T cruzi inh 30, A1 inh 1.6, Calb FLC -1, LANA-H2A inh 1.3 and RanGTP-Impb inh 3.0.
`CCOc1ccccc1NS(=O)(=O)c1ccc(Br)s1` gave MLL AF4-AF9 inh -27, T cruzi inh -1, Vif A3G 28%, A1 inh -0.7, Beta apoptosis 1, Calb FLC 23, LANA-H2A inh -2.8 and RanGTP-Impb inh -3.6.
Screening O=C(OCC(=O)N1CCN(C(=O)c2ccco2)CC1)c1cccc(S(=O)(=O)N2CCc3ccccc32)c1 returned MLL AF4-AF9 inh -1.4, T cruzi inh -1, Vif A3G 9%, A1 inh 0.1, Calb FLC 6, LANA-H2A inh 0.2 and RanGTP-Impb inh 3.9.
`O=C(COC(=O)/C=C/c1ccc([N+](=O)[O-])cc1)NCC1CCCCC1` gave MLL AF4-AF9 inh -35, A1 inh 0.7, Beta apoptosis -1 and LANA-H2A inh -2.6.
Screening O=C(COC(=O)C1C2CC3OC(=O)C1C3C2)Nc1ccc(F)cc1 (stereo not given) returned MLL AF4-AF9 inh 2.9, T cruzi inh -5, A1 inh -0.9, Beta apoptosis -3, Calb FLC 6, LANA-H2A inh -1.0 and RanGTP-Impb inh 0.6.
For C=CCn1c(O)c(N=Nc2nc3ccccc3c(=O)n2-c2ccccc2)c2ccccc21 the results were T cruzi inh -8, Vif A3G -4%, A1 inh -1.0, Beta apoptosis -1, Calb FLC -2, LANA-H2A inh -3.5 and RanGTP-Impb inh -0.3.
For CCCNC(=O)CN(c1ccc(F)c(Cl)c1)S(C)(=O)=O the results were T cruzi inh 0, Vif A3G 5%, A1 inh 0.8, Beta apoptosis -2, Calb FLC inconclusive, LANA-H2A inh -8.9 and RanGTP-Impb inh 4.3.
COCCNC(=O)Cn1ccc2cc(S(=O)(=O)N3CCCCC3)ccc21 was read as MLL AF4-AF9 inh -3.8, T cruzi inh -4, Vif A3G 0%, A1 inh -0.5, Beta apoptosis -4, Calb FLC 12, LANA-H2A inh 0.7 and RanGTP-Impb inh -1.7.
`O=C1CCC(C(=O)N2CCCCO2)CN1CCc1ccccc1` (stereo not given) gave MLL AF4-AF9 inh -5.4, T cruzi inh 4, A1 inh -0.6, Beta apoptosis 5, Calb FLC 6, LANA-H2A inh 0.2 and RanGTP-Impb inh 0.0.
Screening CCCCCCOC(=O)Sc1nc2ccccc2o1 returned T cruzi inh -2, Vif A3G 8%, A1 inh -1.4, Beta apoptosis 0, Calb FLC 27, LANA-H2A inh -8.8 and RanGTP-Impb inh -2.6.
`Cc1cc(C)c(SCCc2ccncc2)c(C)c1` gave MLL AF4-AF9 inh -1.3, T cruzi inh 0, Vif A3G -10%, A1 inh 0.8, Calb FLC 28, LANA-H2A inh -3.1 and RanGTP-Impb inh -1.5.
For N=c1sccn1CC(=O)Nc1ccc(S(=O)(=O)N2CCOCC2)cc1 the results were T cruzi inh 8, Vif A3G -3%, A1 inh -1.1, Beta apoptosis -4, Calb FLC 1, LANA-H2A inh -1.2 and RanGTP-Impb inh 5.7.
For O=[N+]([O-])c1ccc(NC(=S)N2CCCC2)cc1 the results were MLL AF4-AF9 inh 2.9, T cruzi inh -5, Vif A3G -3%, A1 inh 0.9, Calb FLC -32, LANA-H2A inh 0.2 and RanGTP-Impb inh 4.3.
COc1ccc(CCNC(=O)COC(=O)C23CC4CC(CC(C4)C2)C3)cc1 was read as MLL AF4-AF9 inh -4.8, T cruzi inh -10, A1 inh 0.0, Beta apoptosis 1, Calb FLC -1, LANA-H2A inh 0.1 and RanGTP-Impb inh -3.9.
`Nc1ccn(Cc2ccc(F)cc2)n1` gave MLL AF4-AF9 inh -1.3, T cruzi inh -3, A1 inh 0.0, Beta apoptosis -9, Calb FLC 6, LANA-H2A inh -0.5 and RanGTP-Impb inh 0.8.
Screening CCOC(=O)CC1C(=O)NCCN1C(=O)c1cc2c(=O)n3ccccc3nc2s1 (stereo not given) returned T cruzi inh -8, Vif A3G inconclusive, A1 inh 0.6, Beta apoptosis -8, Calb FLC 0, LANA-H2A inh 0.2 and RanGTP-Impb inh -2.1.
For CCOC(=O)N=Nc1c(O)n(C)c2ccccc12 the results were MLL AF4-AF9 inh 3.6, T cruzi inh -6, Vif A3G 5%, A1 inh 0.5, Beta apoptosis 7, Calb FLC -12, LANA-H2A inh -2.3 and RanGTP-Impb inh 0.0.
O=C(C1=C(O)C(=O)N(c2ncccn2)C1c1cccc(Cl)c1)c1ccco1 (stereo not given) was read as T cruzi inh -5, Vif A3G 14%, A1 inh -1.1, Beta apoptosis -8, Calb FLC 27, LANA-H2A inh 0.1 and RanGTP-Impb inh -1.5.
CC1CCN(Cc2cc(=O)oc3cc(O)c(Cl)cc23)CC1 was read as MLL AF4-AF9 inh -1.7, T cruzi inh 1, Vif A3G 2%, A1 inh 2.0, Beta apoptosis -7, Calb FLC -20, LANA-H2A inh 2.2 and RanGTP-Impb inh 118*.
Screening CNC(=O)c1c(Cl)cnn1-c1ccc(F)cc1 returned MLL AF4-AF9 inh 1.5, T cruzi inh -14, Vif A3G 9%, A1 inh -0.6, Beta apoptosis -2, Calb FLC 7, LANA-H2A inh -2.6 and RanGTP-Impb inh -2.3.
For CCCCC[n+]1ccn(C2=C([O-])c3ccccc3C(=O)/C2=N\S(=O)(=O)c2ccc(Cl)cc2)c1 the results were MLL AF4-AF9 inh -0.9, T cruzi inh 46, Vif A3G inconclusive, A1 inh -0.2, Beta apoptosis 109*, Calb FLC 21, LANA-H2A inh 3.5 and RanGTP-Impb inh 2.9.
`COc1cc(/C=C2/C(=O)NN(c3cccc(C)c3)C2=O)ccc1OC(=O)c1ccco1` gave MLL AF4-AF9 inh 1.4, T cruzi inh 2, Vif A3G inconclusive, A1 inh -0.2, Calb FLC -23, LANA-H2A inh -2.0 and RanGTP-Impb inh -0.3.
For Cc1ccc(Cl)cc1NC(=O)COC(=O)c1ccc(N2CCCC2)c([N+](=O)[O-])c1 the results were MLL AF4-AF9 inh 0.6, T cruzi inh -23, A1 inh 0.3, Beta apoptosis -8, Calb FLC 0, LANA-H2A inh 0.4 and RanGTP-Impb inh 0.2.
`O=C(Nc1nnc(-c2ccccn2)o1)c1cccc(Cl)c1` gave MLL AF4-AF9 inh -0.5, T cruzi inh -25, Vif A3G inconclusive, A1 inh -5.6, Beta apoptosis -4, Calb FLC -3, LANA-H2A inh -2.5 and RanGTP-Impb inh 0.1.
`CCOc1ccc2[nH]c(C(=O)N/N=C/c3ccc(OC)cc3)cc2c1` gave MLL AF4-AF9 inh 1.4, T cruzi inh -23, Vif A3G -11%, A1 inh 0.6, Beta apoptosis 34, Calb FLC 50, LANA-H2A inh 1.1 and RanGTP-Impb inh -1.0.
Screening O=C1/C(=C/c2ccccn2)SC(=S)N1NS(=O)(=O)c1ccccc1 returned MLL AF4-AF9 inh -5.8, T cruzi inh -9, Vif A3G -2%, A1 inh -0.2, Beta apoptosis -8, Calb FLC 41, LANA-H2A inh -2.9 and RanGTP-Impb inh -0.7.
